From PubChem BioAssay
LANA-H2B inh – blocks KSHV LANA binding to histone H2A/H2B | Q9QR71 | cell-free LANA-H2A/H2B peptide, fluorescence polarization | inhibition, % (concentration not given with the values) | 0.6% of 320,000 active; in the data active = inhibition mostly above about 10%, no sharp cut-off; inactive = mostly below about 6.7%;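 note: stock transfer was 7.5 nL into about 10 µL; 0% = median of vehicle wells and 100% = median of positive control wells; one replicate is shown; the record names a cut of 25% in any replicate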
Target sequence (Q9QR71 whole entry, looked up): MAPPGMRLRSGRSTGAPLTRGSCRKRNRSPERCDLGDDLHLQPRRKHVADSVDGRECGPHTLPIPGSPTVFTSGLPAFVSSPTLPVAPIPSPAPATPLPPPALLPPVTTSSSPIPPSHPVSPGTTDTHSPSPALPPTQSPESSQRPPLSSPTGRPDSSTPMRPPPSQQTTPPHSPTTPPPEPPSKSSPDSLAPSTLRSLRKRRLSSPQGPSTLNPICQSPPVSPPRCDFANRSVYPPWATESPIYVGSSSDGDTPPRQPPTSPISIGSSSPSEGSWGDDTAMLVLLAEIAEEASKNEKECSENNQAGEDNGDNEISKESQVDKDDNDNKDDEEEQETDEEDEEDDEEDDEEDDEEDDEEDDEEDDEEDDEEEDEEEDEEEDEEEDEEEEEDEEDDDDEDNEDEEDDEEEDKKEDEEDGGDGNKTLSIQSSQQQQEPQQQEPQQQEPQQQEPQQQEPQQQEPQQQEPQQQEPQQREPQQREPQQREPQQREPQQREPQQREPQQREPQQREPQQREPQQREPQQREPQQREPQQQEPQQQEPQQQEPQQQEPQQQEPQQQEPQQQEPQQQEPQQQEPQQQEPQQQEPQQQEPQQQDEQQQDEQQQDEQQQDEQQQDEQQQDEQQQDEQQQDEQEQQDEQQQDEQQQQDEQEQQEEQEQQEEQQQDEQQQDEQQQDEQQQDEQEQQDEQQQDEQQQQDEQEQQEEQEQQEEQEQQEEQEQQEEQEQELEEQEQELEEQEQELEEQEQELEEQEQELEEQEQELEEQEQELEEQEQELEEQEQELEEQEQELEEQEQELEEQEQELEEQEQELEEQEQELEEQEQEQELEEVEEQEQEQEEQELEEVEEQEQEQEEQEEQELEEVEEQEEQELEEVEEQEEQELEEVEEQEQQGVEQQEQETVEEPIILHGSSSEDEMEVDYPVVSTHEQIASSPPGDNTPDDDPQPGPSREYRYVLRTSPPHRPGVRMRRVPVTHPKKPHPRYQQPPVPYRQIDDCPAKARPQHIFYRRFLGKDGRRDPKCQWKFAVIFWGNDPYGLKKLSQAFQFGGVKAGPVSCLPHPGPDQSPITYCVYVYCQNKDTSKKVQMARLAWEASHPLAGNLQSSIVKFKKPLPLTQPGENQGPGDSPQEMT
Calb FLC – C. albicans growth modulation with fluconazole. C. albicans CaCi-2 (fluconazole-resistant clinical isolate) + fluconazole, Alamar Blue growth, 48 h. growth inhibition, % (test concentration not listed). 0.57% of 300,000 active. AID 1979;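 active = most replicates above 75%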;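 note: all wells also contain fluconazole at 8 µg/ml as a sub-toxic cotreatment; 0% = median of DMSO wells and 100% = median of geldanamycin control wells; wells of about 8 µL received 7.5 nL stock; the first replicate is given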
B2AR ag – agonists of human beta-2 adrenergic receptor inducing internalization. Am2.2-beta2AR cells, FAP receptor internalization, flow cytometry; reference of the scale not given here. P07550. 0.43% of 340,000 active. response, % (test concentration not listed);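 active = response above a set limit, near 3 SD of response in nonfluorescent compounds, cut at about 42% in these data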;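 note: stock transfer was 100 nL into about 11 µL; a reference agonist was the positive control; negative values mostly stem from fluorescent compounds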
Beta cell apopt – blocks beta cell apoptosis | INS-1E cytokine-induced death, ATP luminescence, 48 h; percent of positive-control rescue, neutral wells zero | protection from apoptosis, % (no concentration beside the values) | 0.8% of 300,000 active | AID 435005;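 active = all replicates at 75% or more, or half of them and the mean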;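 note: 0% = cytokine-treated negative control wells and 100% = positive control rescue; higher means more ATP so stronger rescue from cytokine killing; wells of about 40 µL received 100 nL stock; the first replicate is given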
ALR inh – inhibitors of human sulfhydryl oxidase ALR | purified ALR, DTT oxidation, H2O2 HRP-luminol luminescence | AID 485317 | inhibition, % (test concentration not listed) | 3.8% of 290,000 active;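 active = mean and each replicate at 75% or more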;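 note: stock transfer was 7.5 nL into about 7.5 µL; 0% = neutral wells and 100% = wells with inactivated enzyme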
Bfl-1 A1 inh – inhibitors of the anti-apoptotic protein A1, read as caspase activation | AID 2462 | 0.066% of 330,000 active | caspase activation, % (test concentration not listed) | MEF A1-2A-BIM cells, Caspase-Glo 3/7 luminescence, 3 h; percent of clofoctol response, vehicle zero;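 active = over half of replicate activation scores above 10%, or exactly half above 10 with the replicate mean above 10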;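 note: wells of about 30 µL received 50 nL stock; many hits fall short of the cut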
T cruzi inh – T. cruzi replication inhibition. 1.4% of 300,000 active. T. cruzi beta-gal in NIH3T3, luminescence, 90 h. inhibition, % (no concentration beside the values);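 active = mean inhibition across valid replicates above about 55%, limit read from the data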;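 note: signal also drops with host cell toxicity which is not excluded here; 0% = plate median of DMSO wells and 100% = zero luminescence signal; higher percent means less beta-gal luminescence so fewer parasites; stock transfer was 50 nL into about 50 µL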
rRNA inh HTS – selective bacterial rRNA inhibition in E. coli | E. coli WT GFP vs humanized-ribosome RFP mutants, fluorescence, 24 h; stronger effect = lower value; DMSO median 0, no signal -100 | GFP signal change (wild-type ribosome), % (no concentration beside the values) | 1.6% of 350,000 active;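 active = significant combined selectivity score with lowered wild-type GFP, culture density cut under 30%, mutant RFP and density less affected; inactive = any of these conditions unmet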; note: one replicate is shown; some compounds called inactive have numbers as strong as hits
rRNA inh HTS OD600 – further read-out of rRNA inh HTS, marked with its call; OD600 change, %; measured here: OD600 growth;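 optical density of the mix in the first replicate; 0 = DMSO median and -100 = no signal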
rRNA inh HTS RFP – recorded beside rRNA inh HTS, whose call it bears; RFP signal change, %; measured here: RFP humanized mutant strains;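 first replicate; 0 = DMSO median and -100 = no signal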
* hit, by the source's call; . = no result given. A portion of the library; rates above refer to the full screens.

Molecule	LANA-H2B inh	Calb FLC	B2AR ag	Beta cell apopt	ALR inh	Bfl-1 A1 inh	T cruzi inh	rRNA inh HTS	rRNA inh HTS OD600	rRNA inh HTS RFP
Cn1c(=O)[nH]c(=O)c2c1nc(N1CCOCC1)n2CC(=O)c1ccccc1	2.6	-17	3	-2	-10	-0.7	-10	13	13	-0.7
CCOc1cc(/C=C/c2nc3ccccc3c(=O)[nH]2)cc(Br)c1OC	-2.1	.	.	55	50	-0.4	-52	.	.	.
COc1ccc(CC(=O)Nc2c(C(=O)N3CCN(c4ccccc4OC)CC3)oc3ccccc23)cc1OC	3.8	-2	12	-2	1	1.1	-7	-5	-11	2.7
CCOC(=O)c1cc(CC)sc1/N=C/C1C(=O)CCCC1=O	-2.7	-10	1	-3	36	0.4	3	10	5	-0.1
COc1ccc(/C=N/NC(=O)CNC(=O)C2COc3ccccc3O2)cc1OC (stereo not drawn)	6.4	-3	4	6	11	-0.5	-10	-3	-6	3.7
O=c1cc(-c2ccccc2)nc2cc(-c3ccc(F)cc3)[nH]n12	1.1	3	10	5	-3	-5.4	-41	.	.	.
CCN1CCCC1CNC(=O)Cn1nc(C)n2nc(-c3ccccc3)cc2c1=O (stereo not drawn)	3.5	-7	-2	-1	-20	-0.5	-3	14	7	-0.2
Cc1cc(Cl)ccc1OCC(=O)NCCCn1ccnc1	-1.7	0	-6	-2	.	-0.6	6	.	.	.
Cc1ccc2nc(NC(=O)CSc3nc4ccccc4o3)sc2c1	-4.0	-15	3	3	-26	-0.8	-23	.	.	.
Cn1c(=O)[nH]c(=O)c2c1nc(NCc1ccccc1)n2Cc1ccc(F)cc1	-1.2	-1	8	9	-3	2.2	10	8	5	0.5
CC(C)(C)c1ccc(C(=O)Nc2ccc(F)cc2)s1	-0.2	-2	4	-3	17	-4.9	15	-3	4	2.1
CC1CCCC(NC(=O)COC(=O)Cc2ccc(Br)cc2)C1C (stereo not drawn)	0.3	-9	-5	.	-10	-0.7	2	1	2	0.1
Cc1ccc(S(=O)(=O)N/N=C/c2cccc3nccnc23)cc1	0.7	20	3	0	.	1.2	0	7	4	8.3
CC1CCN(C(=O)CSc2nnc(CNC(=O)c3ccco3)o2)CC1	3.6	-2	-3	2	-9	0.2	-8	.	.	.
Cc1c(C=O)cnn1CCC(=O)O	-2.0	1	-1	0	-1	-0.7	-6	.	.	.
Cc1cccc(NC(=O)C(=O)NCc2ccccn2)c1	-4.7	-2	-2	-2	-4	-0.5	2	2	-2	-5.1
CCOc1ccc(CN2C(=O)c3ccccc3C2=O)cc1C(=O)Nc1nnc(SCC)s1	10	.	20	-1	-18	1.7	9	.	.	.
CC(NCc1ccc(S(N)(=O)=O)cc1)C(=O)NCc1ccccc1 (stereo not drawn)	-4.0	-2	0	-5	.	0.7	-5	4	11	-1.5
COc1ccc(NC2c3ccccc3C(=O)N2c2ccccn2)cc1Cl (stereo not drawn)	-1.9	0	13	-2	52	-0.8	32	-6	-15	-6.5
CCN(CC)C(=O)CSc1nc2ccccc2c(=O)n1-c1ccccc1OC	-1.5	-4	-15	-4	2	0.8	5	.	.	.
CCCc1nc2ccccc2n1Cc1ccccc1OC	5.9	1	-7	-4	10	0.3	11	-45*	-32*	-12*
CSc1sc(C(=O)N(C)C)cc1S(=O)(=O)C(C)C	6.2	-7	-7	2	.	-0.3	-8	22	14	-2.2
CCc1c(O)nc(SC2CC(=O)N(c3ccccc3)C2=O)[nH]c1=O (stereo not drawn)	5.6	-3	8	-4	-3	0.9	-14	.	.	.
O=C(Nc1cc(S(=O)(=O)Nc2ccc(Cl)cc2)ccc1O)c1ccc(S(=O)(=O)N2CCCCCC2)cc1	-4.2	15	3	-12	-4	0.3	4	7	12	2.3
Cc1ccc(F)cc1NC(=O)CCc1c(C)[nH]c(=O)c(C#N)c1C	-2.9	-5	0	-5	-3	-0.7	7	7	16	0.0
CCOC(=O)c1sc(N/N=C/c2ccccc2)nc1C	2.5	-11	-9	-6	.	0.3	13	.	.	.
COCCN(C(=O)c1ccco1)c1nnc(-c2ccc(OC)c(OC)c2)s1	4.8	4	0	6	-3	-0.9	6	.	.	.
CCN1C(=O)N[C@@H](c2ccccc2)C(C(=O)OC)=C1C	-1.9	-8	-3	-1	10	0.9	-2	.	.	.
COc1ccccc1-c1cc(C(=O)NCCN2CCOCC2)no1	16*	38	1	-1	-8	-0.3	-2	.	.	.
CCC(=O)NCCCCCCCCCNC(=O)CC	-6.7	-3	1	-3	8	0.2	8	11	-4	-5.5

Remaining list, next part:
Molecule	LANA-H2B inh	Calb FLC	B2AR ag	Beta cell apopt	ALR inh	Bfl-1 A1 inh	T cruzi inh	rRNA inh HTS	rRNA inh HTS OD600	rRNA inh HTS RFP
CN(C(=O)c1cccnc1)c1nnc(-c2ccccn2)s1	-0.9	4	-14	0	0	-3.7	-14	0	6	-4.0
CCOc1cc(C(=O)NC)cc(Br)c1OC	-1.3	4	-5	1	-20	-0.4	3	4	1	1.1
COCC(=O)N(C)c1nnc(-c2ccccn2)s1	3.0	15	-7	-2	-7	0.0	-6	.	.	.
Cn1cc(C(=O)N/N=C/C=C/c2ccccc2)ccc1=O	5.9	1	4	-3	-9	0.2	-22	.	.	.
CC1CCc2cc(F)ccc2N1S(=O)(=O)c1ccc(F)cc1 (stereo not drawn)	0.6	7	-5	.	-1	1.0	-3	-14	-10	-4.4
CCN1CCN(c2ccc(S(=O)(=O)N3CCCC3)cn2)CC1	5.4	8	-4	-1	-39	0.4	10	11	18	-3.6
COc1cc(OC)cc(C(=O)NNC(=O)CN2C(=O)NC3(CCCC3)C2=O)c1	-0.4	.	0	-1	.	0.3	.	5	14	-0.3
O=C(COc1ccc(Cl)cc1)NCc1nnc(SCC(=O)N2CCCC2)o1	2.6	0	-13	-1	-16	-0.2	-2	9	0	-0.4
CCOc1ccc(NC(=S)N(C)C)cc1	0.3	0	2	-6	-1	0.6	-8	12	9	6.1
Cc1ncc([N+](=O)[O-])n1CC(=O)Nc1ccc(F)cc1	-1.5	-9	-11	-4	-4	-0.5	-6	5	7	-1.1
CCOC(=O)C1(Cc2cccc(F)c2)CCN(C(=O)c2cnc(C)cn2)CC1	7.4	-12	8	-2	-4	-0.4	0	10	-2	-0.6
O=C(Cn1nc(C(F)(F)F)c2c1CCC2)Nc1ccccc1C(F)(F)F	7.1	-3	4	-1	3	0.4	7	.	.	.
O=C(Nc1ccc(C(=O)O)cc1)/C(=C\c1ccco1)NC(=O)c1ccccc1Cl	5.8	37	0	-6	11	-0.8	-5	21	1	1.8
CCNC(=O)c1ccc(CSc2nc3ccccc3s2)cc1	4.2	0	-4	-3	99*	-4.7	-8	-43	-57	-0.5
COC(=O)C1=C(C)N(C)C(=S)N(C)C1c1ccc(OC)cc1 (stereo not drawn)	7.5	22	1	-1	4	0.3	5	-21	-15	-6.3
CC(=O)c1c(COC(=O)c2ccc(F)cc2)nc2ccccc2[n+]1[O-]	3.2	11	2	-1	-5	0.0	-26	23	17	3.3
COC(=O)c1ccc(NC(=O)CSc2nc3ncccc3[nH]2)cc1	-5.2	2	-1	-5	72	0.0	2	4	0	1.0
COc1cccc(N(CC(=O)O)S(=O)(=O)c2ccccc2)c1	-3.9	-3	6	-3	-3	0.1	0	.	.	.
O=C(CCN1C(=O)COc2ccccc21)NCc1cccs1	4.3	-5	-13	2	5	0.8	-12	.	.	.
O=C(c1ccc(Cl)cc1)N1CCC(N2CCC(C(=O)N3CCOCC3)CC2)CC1	0.1	1	-10	1	-15	-0.3	4	-1	9	2.1
COc1ccc(Cl)cc1C(=O)NNC(=O)c1n[nH]c2ccccc12	-1.3	.	-4	-8	-3	-2.6	.	.	.	.
O=C(NC1CCCC1)C1CC(O)CN1C(=O)Nc1ccccc1 (stereo not drawn)	1.5	-5	-3	4	41	0.0	-3	4	-2	3.3
O=C(N/N=C/c1ccco1)c1cc2ccccc2o1	0.3	.	-6	2	-4	-0.2	-2	2	20	1.5
C#C[C@]1(O)CC[C@H]2[C@@H]3CCc4cc(OC5CCCC5)ccc4[C@H]3CC[C@@]21C	-1.1	.	-1	4	.	1.3	55*	22	5	7.8
O=C1CSC(=NC2CCCCC2)N1	-0.4	-7	2	-16	98*	-0.3	-7	.	.	.
CN(C)c1nccc(NCc2ccccc2)c1C#N	-2.7	-16	-1	2	-28	0.1	17	7	1	-0.1
O=C(NCCCN1CCOCC1)/C(=C/c1ccc(F)cc1)NC(=O)c1ccccc1	.	-2	3	0	.	0.3	-2	11	13	-3.4
CCOC(=O)C1=C(C)C(c2cccc(Oc3ccccc3)c2)NC(=S)N1 (stereo not drawn)	-4.4	3	-9	0	-2	-0.7	34	-46	-69	-2.5
O=C(NCC(=O)N1CCN(c2ncccn2)CC1)c1cccs1	4.6	-6	2	12	.	0.0	5	.	.	.
CCOC(=O)C1CCCN(C(=O)c2ccc(NC(=O)CC3SC(N4CCCC4)=NC3=O)cc2)C1 (stereo not drawn)	-2.0	2	-8	-11	.	-0.1	-13	11	11	-0.3

Further entries follow.
Molecule	LANA-H2B inh	Calb FLC	B2AR ag	Beta cell apopt	ALR inh	Bfl-1 A1 inh	T cruzi inh	rRNA inh HTS	rRNA inh HTS OD600	rRNA inh HTS RFP
CN(C)S(=O)(=O)c1ccc(N2CCCC2)c(C(=O)N2CCN(S(=O)(=O)c3cccc(F)c3)CC2)c1	1.2	20	8	4	.	0.4	29	5	10	1.5
COCCNS(=O)(=O)c1ccc(OCC(=O)OC)c(Cl)c1	3.1	7	10	-2	-16	0.3	-5	.	.	.
C[n+]1c2n(c3ccccc31)N=C(c1ccc(-c3ccccc3)cc1)CS2	6.6	103*	-11	108*	99*	0.7	60*	-58	-79	-31
C/C(=N\NC(=O)C1CC1)c1ccc(N2CCOCC2)cc1	0.9	-39	-8	1	23	-0.8	-4	-2	0	-4.5
CSc1ncccc1C(=O)OCC(=O)NC12CC3CC(CC(C3)C1)C2	6.2	.	-10	-9	-6	0.0	.	-23	-60	-4.5
COc1cc(OC)c(NC(=O)c2ccc(F)cc2)cc1Cl	-8.4	11	3	1	-15	-0.4	11	1	11	-0.5
Cc1cc(NC(=O)C2CCCCC2C(=O)O)no1 (stereo not drawn)	3.1	-3	2	-1	-9	-2.9	-3	.	.	.
O=C(NCCN=C1NS(=O)(=O)c2ccccc21)c1ccncc1	2.8	-5	11	-2	0	0.1	-20	.	.	.
CCCC(=O)Nc1ccc2c(c1)nc(CCNC(=O)c1ccccc1)n2C	4.6	0	-15	-10	-11	-0.1	-8	10	9	-8.1
O=c1c2sc3ccccc3c2[nH]c(=S)n1CCN1CCOCC1	-2.5	15	-4	12	96*	0.2	-9	-7	-7	0.9
CCN(c1ccccc1)S(=O)(=O)c1ccc(Cl)c(NC(=O)CN(C)C2CCN(C)CC2)c1	4.0	78*	30	11	3	0.3	56*	-7	-9	13
O=C(Cc1ccccc1)NNC(=S)NC(=O)c1cccnc1	1.1	40	14	-3	-5	0.5	3	23	8	-2.0
